# From PubChem BioAssay
# KCNQ2 block – KCNQ2 potassium channel inhibitors, primary screen, cell-based, CHO-K1, FluxOR thallium flux, B-score (AID 2156); 20 min; stronger effect = lower value; only compounds with negative scores are shown here; some inactives read as strong as hits; B-score at 10 µM; 1.1% of 310,000 active;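 active means fluorescence ratio B-score at most minus 3 library SDs, with starting brightness B-score within 2 library SDs, cut at about -5.5 in these data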
# Target sequence (O88943 whole entry, looked up): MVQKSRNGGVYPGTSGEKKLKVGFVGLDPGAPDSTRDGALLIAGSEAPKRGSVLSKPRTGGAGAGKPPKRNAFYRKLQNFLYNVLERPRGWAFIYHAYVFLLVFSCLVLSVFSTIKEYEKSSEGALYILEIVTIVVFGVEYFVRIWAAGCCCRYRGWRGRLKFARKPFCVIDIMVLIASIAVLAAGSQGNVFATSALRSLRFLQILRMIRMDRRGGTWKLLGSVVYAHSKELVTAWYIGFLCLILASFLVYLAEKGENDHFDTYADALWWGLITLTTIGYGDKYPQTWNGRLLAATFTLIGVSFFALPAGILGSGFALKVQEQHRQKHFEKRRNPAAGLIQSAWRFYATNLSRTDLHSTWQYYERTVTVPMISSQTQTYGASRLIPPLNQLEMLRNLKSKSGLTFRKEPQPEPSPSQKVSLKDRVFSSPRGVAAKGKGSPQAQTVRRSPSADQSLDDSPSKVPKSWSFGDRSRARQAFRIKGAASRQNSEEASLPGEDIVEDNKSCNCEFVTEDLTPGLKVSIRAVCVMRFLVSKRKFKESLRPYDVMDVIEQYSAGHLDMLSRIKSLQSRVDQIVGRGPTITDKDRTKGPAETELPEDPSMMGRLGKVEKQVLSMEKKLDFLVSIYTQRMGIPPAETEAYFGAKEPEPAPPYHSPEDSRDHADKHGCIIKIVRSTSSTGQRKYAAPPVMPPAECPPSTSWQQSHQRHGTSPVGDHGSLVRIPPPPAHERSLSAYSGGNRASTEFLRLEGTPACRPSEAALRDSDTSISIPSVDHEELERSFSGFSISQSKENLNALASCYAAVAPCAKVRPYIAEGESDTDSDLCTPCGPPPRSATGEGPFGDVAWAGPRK
# KCNQ2 block baseline – further read-out of KCNQ2 block, marked with its call; B-score; measured here: initial fluorescence intensity artifact check;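 brightness before thallium and not channel activity; 0 = typical well and far values either way flag optical interference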
# Starred values were filed as active, the others as inactive; i = inactive.
KCNQ2 block,KCNQ2 block baseline,molecule
i,0.62,S=c1nc(-c2ccccc2)c(-c2ccccc2)n[nH]1
i,3.7,O=C(O)CN1C(=O)C2C3CC(C2C1=O)C1C(c2ccc(F)cc2)c2sc(=O)[nH]c2SC31 (configuration not stated)
i,0.05,O=C(N/N=C\c1cccc(Cl)c1)c1ccc(Cn2cc(Br)c([N+](=O)[O-])n2)o1
i,-0.1,C=CCn1c(=O)c2c(nc(-n3nc(C)cc3C)n2C)n(C)c1=O
i,1.3,O=c1c(-c2ccc(Cl)cc2)coc2c(CN3CCCCC3)c(O)ccc12
i,-1.6,O=C(N/N=C/C=C\c1ccccc1[N+](=O)[O-])c1cc(-c2ccc3ccccc3c2)n[nH]1
i,1.1,CCCc1cc(=O)oc2cc(Oc3ncccn3)ccc12
i,0.59,C=CCn1c(SCC(=O)N2CCOCC2)nc2ccccc2c1=O
i,6.6,O=C(CCCNC(=O)c1ccc(Cl)cc1)Nc1cccc(F)c1
i,-1.3,COc1ccc(N2CCN(S(=O)(=O)c3cc(Br)cnc3N)CC2)cc1
i,1.1,Cc1csc(C)[n+]1CC(=O)c1ccccc1
i,-0.13,COc1cc2c(cc1OC)/C(=C/c1ccc(Br)cc1)C(=O)OC2
i,0.13,O=C(COC(=O)CCCc1nc2ccccc2s1)Nc1ncc(Cl)cc1Cl
i,1.8,CCCC(=O)NCCc1cc2ccc(OC)cc2[nH]c1=O
i,0.75,COc1ccccc1C(=O)O/N=C1/CCCc2c1ccc(OC)c2[N+](=O)[O-]
i,-1.3,[O-]/C(=C(\C(=S)NCc1ccccc1)[n+]1ccccc1)c1ccc(Cl)cc1
i,0.07,Cc1ccc(C(=O)c2nocc2C(=O)c2cccs2)cc1
i,1.6,COc1ccc(C(=O)N2CC(=O)Nc3ccccc32)cc1S(=O)(=O)N1CCCC1
i,-0.8,CC(C)NC(=O)COc1ccc(/C=N/NS(=O)(=O)c2ccccc2)cc1
i,0.65,Cc1ccccc1NC(=O)C(=Cc1ccc(C(=O)O)cc1)C(=O)Nc1ccccc1C

# Five entries out of the list, arranged by molecular weight, smallest number first.
KCNQ2 block,KCNQ2 block baseline,molecule
i,-0.1,C=CCn1c(=O)c2c(nc(-n3nc(C)cc3C)n2C)n(C)c1=O
i,0.75,COc1ccccc1C(=O)O/N=C1/CCCc2c1ccc(OC)c2[N+](=O)[O-]
i,-1.3,[O-]/C(=C(\C(=S)NCc1ccccc1)[n+]1ccccc1)c1ccc(Cl)cc1
i,0.13,O=C(COC(=O)CCCc1nc2ccccc2s1)Nc1ncc(Cl)cc1Cl
i,-1.3,COc1ccc(N2CCN(S(=O)(=O)c3cc(Br)cnc3N)CC2)cc1

# More entries.
KCNQ2 block,KCNQ2 block baseline,molecule
i,-0.54,O=C1CCC(C(=O)OCC(=O)c2ccccc2)N1 (configuration not stated)
i,0.09,O=C(c1ccc(-c2ccccc2)cc1)N1CCCC1
i,-0.71,O=C(CSc1nnc(NC(=O)C2CC(=O)N(c3ccc(F)cc3)C2)s1)NCC1CCCO1 (configuration not stated)
i,-0.03,C=CCNc1nc(NC(C)(C)CO)nc(OC)n1
i,-0.1,Cc1ccccc1N1C(=O)C(Oc2ccc(Cl)cc2)C1CNC(C)(C)C (configuration not stated)
i,-2,Cc1cccc(CNC(=O)CCc2nnc(C3CCCCC3)o2)c1
i,-0.35,CCOC(=O)CN1C(=O)N[C@@H](CCc2ccccc2)[C@@H](C(=O)OC)[C@H]1C
i,0.56,COc1ccccc1-c1nnc(SCC(=O)Nc2nc(-c3ccccc3)cs2)n1C
i,-0.76,O=C(NC1CC1)C(Cl)c1ccccc1 (configuration not stated)
i,0.31,Cc1cc(C(=O)NNC(=S)Nc2cccc(C(F)(F)F)c2)nn1C
i,0.91,Cc1nc2ccccc2c(=O)n1/N=C/c1ccccc1OC(F)F
i,5.4,CCOc1ccc(C2C=C(c3ccc(C)cc3)Nc3ncnn32)cc1 (configuration not stated)
i,1.8,C=C(C)C(=O)N1CC2(CC(c3cccc(NC(=O)CC(c4ccccc4)c4ccccc4)c3)=NO2)C[C@H]1C(N)=O (some centres not stated)
i,-0.25,COc1ccc(C2(CNC(=O)C(c3ccccc3)c3ccccc3)CCOCC2)cc1OC
i,0.19,Cc1cccc(NC(=O)c2cc(Cl)nc3ccccc23)c1
i,2.5,O=C(NCCCn1ccnc1)C(=O)NCc1ccc(Cl)cc1
i,-1.3,O=C(CNS(=O)(=O)c1cccc(C(F)(F)F)c1)Nc1ccccc1F
i,-0.77,CCC(CC)NC(=O)c1ccc2c(c1)OCCO2
i,0.21,CCNC(=O)C1CC(=O)OC12CCCCC2 (configuration not stated)
i,4.1,Cn1c(N2C(=O)CC(Cc3ccccc3)C2=O)nc2ccccc21 (configuration not stated)

# (further entries)
KCNQ2 block,KCNQ2 block baseline,molecule
i,-0.71,O=C(CN1C(=O)c2cccc3cccc1c23)NCc1cccnc1
i,-0.05,COc1ccc(C2c3sc(=O)[nH]c3SC3C4CCC(C4)C23)cc1 (configuration not stated)
i,0.83,O=C(C(c1ccccc1)c1ccccc1)N1CCN(CC(O)COc2ccccc2)CC1 (configuration not stated)
i,0.03,COC(=O)c1nn(-c2ccccc2)c(Cl)c1/C=N/OC(=O)c1ccc(Cl)c(Cl)c1
i,-0.57,CCC(CC)NC(=O)Nc1ccccc1C
i,0.14,O=C1CC(Nc2ccc(N3CCOCC3)cc2)C(=O)N1c1cccc(C(F)(F)F)c1 (configuration not stated)
i,-1.4,COC(=O)c1[nH]c2ccc(F)cc2c1NC(=O)Nc1ccc(OC)cc1
i,0.24,O=C(C1CC1)N1CCN(c2ccc([N+](=O)[O-])cc2)CC1
i,0.19,Cn1ncc2c1ncn1nc(CCc3ccccc3)nc21
i,0.03,c1ccc(CN2CCC(Nc3nc(-c4cccs4)nc4ccccc34)CC2)cc1
i,0.04,CC(C)C12CN(C(=O)c3ccccc3[N+](=O)[O-])CC(C(C)C)(CN(C(=O)c3ccccc3[N+](=O)[O-])C1)C2=O
i,-0.97,CC1(C)Cc2nc(Cl)c(C(=O)O)cc2CO1
i,3.4,Cc1ccc(S(=O)(=O)N(C)Cc2ccccc2)cc1C(=O)N1CCCCC1
i,-0.73,CC1(C)CC(=O)C2=C(C1)OC(=O)CC2c1cccs1 (configuration not stated)
i,0.89,CC1=NN2C(=N)/C(=C\c3cc(C)n(-c4ccccc4)c3C)C(=O)N=C2S1
i,2.5,CCOC(=O)c1cnc2nc(NCc3ccc(OCc4ccccc4)cc3)[nH]n2c1=O
i,-1.5,COCCNC(=O)C(NC(=O)C1CCCCC1)C12CC3CC(CC(C3)C1)C2 (configuration not stated)
i,0.77,Cc1cc2c(c(=O)n1CCN(C)C)C(c1ccncc1)C(C#N)=C(N)O2 (configuration not stated)
i,-0.04,O=C(Nc1cccc(NC(=O)c2cc([N+](=O)[O-])ccc2Cl)n1)c1cc([N+](=O)[O-])ccc1Cl
i,-0.99,COc1ccc2[nH]c(C)c(C(=O)CN3CCOCC3)c2c1

# Further results follow:
KCNQ2 block,KCNQ2 block baseline,molecule
i,0.16,Cc1ccc(C)c(N2CCN(CCCNC(=O)Cn3cc4c(n3)CCCCC4)CC2)c1
i,13,O=C(Cc1cn2ccsc2n1)Nc1nc2c(s1)CCCC2
i,-0.27,CCOc1ccccc1CNC(=O)c1ccc(Sc2ccc(Cl)cc2)c(NC(C)=O)c1
i,0.46,O=C(c1ccco1)N1CCN(C(=O)c2cnn(-c3ccc(Cl)cc3)c2C2CCNCC2)CC1
i,2.1,CC(C)c1ccc(NC(=O)COC(=O)c2c[nH]c(=O)[nH]c2=O)cc1
i,-0.1,CN(Cc1ccccn1)C(=O)C1CCC(=O)N(Cc2cccc(F)c2)C1 (configuration not stated)
i,1.3,O=C1CN(C(=O)/C=C/c2cccc(Cl)c2)c2ccccc2N1
i,0.03,C(=N\n1cnnc1)/c1ccccn1
i,0.68,Cc1c(C(=O)NCCCc2ccccc2)cccc1[N+](=O)[O-]
i,-0.79,CCOCCn1c(SC(C)C(C)=O)nc2c1c(=O)[nH]c(=O)n2C (configuration not stated)
i,0.29,O=C(Nc1ccccc1)C1=C[C@@H](C2CC2)C[C@@H](OCc2ccc(CO)cc2)O1
i,1.5,CCn1c(=O)c2c(nc(SCc3ccccn3)n2C)n(C)c1=O
i,-0.13,COC(=O)c1ccc(S(=O)(=O)N2CCN(C(c3ccccc3)c3ccccc3)CC2)n1C
i,-1.4,Cc1ccc(C2CC2c2n[nH]c(=S)n2-c2ccc(C)cc2)cc1 (configuration not stated)
i,0.43,Cc1ccccc1NC(=O)COC(=O)Cc1cccc(C(F)(F)F)c1
-12*,1*,COc1ccc(Cl)cc1C(=O)NC(=S)Nc1ccccc1N1CCOCC1
i,-1.1,Cn1c(=O)c([N+](=O)[O-])c(Oc2ccccc2)c2ccccc21
i,0.16,COc1ccc(C(=O)NC(Nc2ccc(C)cc2)C(Cl)(Cl)Cl)cc1 (configuration not stated)
i,0.27,COc1ccc(-c2nc3ccc(C(=O)NCC(OC)OC)cc3nc2-c2ccc(OC)cc2)cc1
i,-0.35,Cc1cc(CN2CCC(N3CCC(C(=O)NC4CC4)CC3)CC2)cc(C)c1O

# Reformatted tab-delimited: part of the list above.
Structure	KCNQ2 block	KCNQ2 block baseline
CC(C)c1ccc(NC(=O)COC(=O)c2c[nH]c(=O)[nH]c2=O)cc1	i	2.1
CN(Cc1ccccn1)C(=O)C1CCC(=O)N(Cc2cccc(F)c2)C1 (configuration not stated)	i	-0.1
O=C1CN(C(=O)/C=C/c2cccc(Cl)c2)c2ccccc2N1	i	1.3

# Next section
KCNQ2 block,KCNQ2 block baseline,molecule
i,0.03,CCOC(=O)c1c(NC(=O)C2CCCO2)sc2c1CCC2 (configuration not stated)
i,3.1,O=C(NCc1ccncc1)c1ccc(OCc2ccccc2)cc1
i,0.31,O=[N+]([O-])c1cc(/C=N/O)ccc1Oc1cccc(Cl)c1
i,-0.53,Cc1cc(C)c(S(=O)(=O)c2ccc(F)cc2C)c(Cl)n1
i,0.38,O=C(CSc1nnnn1-c1ccccc1)c1ccco1
i,-0.13,CCOC(=O)CNC(=O)Nc1ccccc1C(=O)OC
i,0.33,Cc1cc(Br)c(NC(=O)c2ccccc2[N+](=O)[O-])cc1C
i,-2.5,CCOC(=O)C[C@H]1c2cc(C(F)(F)F)ccc2S(=O)(=O)N1C(C)C
i,4.4,O=C1c2ccccc2NC(c2c(Cl)cccc2Cl)N1Cc1ccccc1 (configuration not stated)
i,0.01,CC(C)OCCCNC(=O)C1CCC(CNS(=O)(=O)c2ccc(Cl)cc2)CC1 (configuration not stated)
i,-1.8,CC(NC(=O)C1CCCN(S(=O)(=O)N2CCOCC2)C1)c1ccccc1 (configuration not stated)
i,0.88,CC(=O)Nc1ccc(S(=O)(=O)Nc2nnc(Cc3ccc(Cl)cc3)s2)cc1
i,-0.37,Cc1nnc(NC(=O)COc2ccc3c(C)cc(=O)oc3c2)s1
i,-1.1,C=CCN(CC=C)C(=O)c1cc(Cl)ccc1[N+](=O)[O-]
i,-0.32,CCOC(=O)Cn1nc(-c2ccc(C)cc2)c2ccccc2c1=O
i,-0.04,C=CCOc1ccc(/C=C/C(=O)OCC(=O)NCC2CCCO2)cc1 (configuration not stated)
i,-1.2,CCOCCCNc1nc(-c2ccccc2)nc2ccccc12
i,0.16,CC(C)N(C(=O)c1ccc2nc(-c3ccccc3)c(-c3ccccc3)nc2c1)C(C)C
i,0.05,C[C@@H]1CN(c2c(F)c(F)c3c(=O)c(C(=O)O)cn(C4CC4)c3c2F)C[C@H](C)N1
i,-0.08,CC(=O)Nc1ccc(NC(=O)C2CC(=O)N(c3cccc(Cl)c3)C2)cc1 (configuration not stated)

# One compound at a time, as listed above:
# CCOCCCNc1nc(-c2ccccc2)nc2ccccc12 across the screens: KCNQ2 block: i; KCNQ2 block baseline: -1.2
# CC(NC(=O)C1CCCN(S(=O)(=O)N2CCOCC2)C1)c1ccccc1 (configuration not stated) across the screens: KCNQ2 block: i; KCNQ2 block baseline: -1.8
# Cc1cc(Br)c(NC(=O)c2ccccc2[N+](=O)[O-])cc1C across the screens: KCNQ2 block: i; KCNQ2 block baseline: 0.33

# (listing goes on)
KCNQ2 block,KCNQ2 block baseline,molecule
i,0.57,CCOc1ccc(NC(=O)c2ccc(NC(=O)Cc3n[nH]c(=O)c4ccccc34)cc2)cc1
i,-0.27,CC(CNS(=O)(=O)c1ccccc1)(c1ccccc1)N1CCOCC1 (configuration not stated)
i,0.56,CC(C)Oc1ccc(/C(O)=C2/C(=O)C(=O)N(CCN(C)C)C2c2ccco2)cc1 (configuration not stated)
i,0.02,CCN(CC)c1ccc(NC(=O)c2cc(Cl)ccc2OC)cc1
i,-0.95,Cc1cccc(NC(=S)Nc2ccc(Br)cc2)c1
i,3.6,COc1cc(CNCc2cccs2)cc(Br)c1OC
i,1.7,CCN1CCN(CCCNc2ncnc3nc[nH]c23)CC1
i,1.7,COc1ccc(C(=O)NCC(=O)N/N=C/c2cn(C)c3ccccc23)cc1OC
i,1,O=C(Nc1cccc(Br)c1)c1ccc(CSc2ccccc2)cc1
i,0.21,CC(C)NC(=O)C(c1ccc(F)cc1)N(C(=O)CCC(=O)Nc1ccccn1)C1CCCCC1 (configuration not stated)
i,0.11,O=C(NC(=S)Nc1ccc(N2CCOCC2)cc1)c1ccco1
i,2.4,CCc1cc[n+](-c2nc([O-])sc2C=O)cc1
i,-0.09,CCC(C)c1ccccc1NC(=O)CN(C)CC(=O)Nc1ccccc1SC (configuration not stated)
i,-0.02,COc1cccc(NC(=O)C(Sc2nnc(-c3ccncc3)n2-c2ccc(Cl)cc2)c2ccccc2)c1 (configuration not stated)
i,2.2,Cc1onc(C(=O)NCc2cccs2)c1[N+](=O)[O-]
i,0.22,COc1ccccc1NC(=O)CSc1nnnn1C1CCCC1
-6.9*,-1*,Cc1ccc2c(c1)N(S(=O)(=O)c1ccc(F)cc1)C(C(C)(C)C)CO2 (configuration not stated)
i,1.1,CCCn1c(=O)c(C(=O)OCC)c(O)c2cc(Br)ccc21
i,3.7,COc1ccccc1C(=O)NC(=S)Nc1ccccc1N1CCCCC1

# An excerpt; rates above refer to the full screens.
